PKD1 kinase inh: blocks activity of human protein kinase D1. inhibition, %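 (about 10 µM by stock and volumes)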. 200,000 tested, 0.056% active. PKD1 kinase fluorescence polarization assay. Q15139;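 active = inhibition of 50% or more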;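 also: controls were vehicle for no effect and a reference inhibitor for full effect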
GALR2 ag: agonists of human galanin receptor 2 (GALR2); O43603; GALR2-expressing cells, agonist activation read-out; activation, %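 (tested at 5 µM)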; 140,000 tested, 0.48% active; AID 803;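 active = above mean plus 3 SD of all compounds, about 5% in these data, not always enough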;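 also: 0% = vehicle buffer wells and 100% = reference agonist at full effect; tested in CHO reporter cells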
Target sequence (O43603 whole entry, looked up): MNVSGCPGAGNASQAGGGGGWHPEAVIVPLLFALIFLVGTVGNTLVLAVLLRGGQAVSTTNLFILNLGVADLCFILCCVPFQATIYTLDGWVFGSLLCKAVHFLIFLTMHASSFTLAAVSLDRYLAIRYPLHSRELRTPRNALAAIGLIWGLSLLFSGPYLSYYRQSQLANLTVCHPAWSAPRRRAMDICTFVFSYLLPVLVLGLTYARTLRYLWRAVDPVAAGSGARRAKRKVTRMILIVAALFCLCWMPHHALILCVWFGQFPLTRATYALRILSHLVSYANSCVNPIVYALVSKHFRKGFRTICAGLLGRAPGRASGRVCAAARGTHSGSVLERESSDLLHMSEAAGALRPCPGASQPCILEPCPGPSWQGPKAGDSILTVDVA
HSV replic up: increases HSV replication in cells; 220,000 tested, 0.005% active; maximum fold increase; HSV replication augmentation in cells, fold increase;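 active = peak rise of 1.5-fold or more in the series; tested in PC3 cells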;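 also: first round at 10 µM; read as green reporter fluorescence; hits show the peak of a series up to 25 µM; 1 = signal of infected wells without compound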
Insulin prom inh: TRM-6 insulin promoter activity inhibition; TRM-6 cells (human fetal islet line), insulin promoter-eGFP reporter, imaging; reporter expression induced with tamoxifen; inhibition, % at 2 µM; 130,000 tested, 0.9% active; AID 1273;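 active = inhibition above the mean plus 3 SD, with well images judged a real hit on visual review, cut at about 60% in these data, passing the limit was not always enough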
RGS16-Gao: modulates binding between human RGS16 and Galphao; O15492+P09471; bead-based flow cytometry RGS16-Galphao binding, fluorescence; actives lie on both sides; binding response (% of control), % at 10 µM; 220,000 tested, 0.38% active; AID 1441;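 active = below 25% or above 175%, edge rows of some plates excepted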;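 also: Galphao activated by GDP with aluminum fluoride before binding; 100% = wells without compound and 0% = beads without RGS; some results beyond the cut were filed as inactive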
Target sequence (O15492 whole entry, looked up): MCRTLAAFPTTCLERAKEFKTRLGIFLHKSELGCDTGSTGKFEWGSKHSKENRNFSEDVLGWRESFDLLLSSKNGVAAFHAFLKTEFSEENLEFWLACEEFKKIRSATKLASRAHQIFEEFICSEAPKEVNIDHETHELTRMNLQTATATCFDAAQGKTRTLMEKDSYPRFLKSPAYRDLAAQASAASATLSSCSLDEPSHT
Target sequence (P09471 whole entry, looked up): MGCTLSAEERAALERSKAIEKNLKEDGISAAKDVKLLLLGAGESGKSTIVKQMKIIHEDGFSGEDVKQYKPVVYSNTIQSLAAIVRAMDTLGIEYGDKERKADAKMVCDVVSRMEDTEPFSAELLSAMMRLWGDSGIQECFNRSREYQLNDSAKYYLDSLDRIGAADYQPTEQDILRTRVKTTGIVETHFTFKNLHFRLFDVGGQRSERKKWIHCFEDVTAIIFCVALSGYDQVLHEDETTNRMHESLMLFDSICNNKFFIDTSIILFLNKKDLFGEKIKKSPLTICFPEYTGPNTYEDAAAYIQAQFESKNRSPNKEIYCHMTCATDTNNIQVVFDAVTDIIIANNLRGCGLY
Insulin prom inh cell count: further read-out of Insulin prom inh, marked with its call; normalized cell count, %; measured here: cell count, toxicity; reference of the scale not given here;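 cells exposed to compound for 48 h; stained nuclei by imaging scaled within each plate; lower means fewer cells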
HSV replic up primary fold: recorded beside HSV replic up, whose call it bears; fold increase; compound at 10 µM; measured here: primary screen fold increase 10 uM; tested in PC3 cells;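 GFP signal in the first replicate; 1 = infected wells without compound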
Numbers without * were called inactive; i = inactive; . = no result given.

SMILES | PKD1 kinase inh | GALR2 ag | HSV replic up | HSV replic up primary fold | Insulin prom inh | Insulin prom inh cell count | RGS16-Gao
CCOC(=O)C(C)NC(=O)C(NC(=O)C1CCC(CC)CC1)C(C)C (centres undefined) | 8 | -1.3 | i | 0.93 | . | . | 93
Cc1nc2c(nnn2Cc2ccccc2)c(=O)n1-c1ccccc1 | 4 | -2.6 | . | . | -18 | 84 | 99
COc1ccc(-c2ccc(/C=C3/C(=N)N4C(C)=CSC4=NC3=O)o2)c([N+](=O)[O-])c1 | 6 | -1.3 | . | . | -15 | 133 | 92
CC#CC#Cc1cccc(=O)o1 | . | . | i | 0.83 | . | . | 100
CC1(C)CN(c2cccc(Br)c2)C1=O | -2 | . | i | 0.97 | 47 | 87 | 50
Nc1nnc(SCc2coc(-c3ccc(Cl)cc3)n2)s1 | -1 | -1.5 | i | 0.87 | 49 | 152 | 99
COc1ccccc1N1CCN(/N=C/c2cc(OC)c(O)c(OC)c2)CC1 | -15 | 2.9 | i | 0.91 | 16 | 66 | 94
CCOCCCn1cnc2c(c1=O)c1nc3ccccc3nc1n2-c1ccccc1 | 1 | -0.1 | i | 1.4 | 18 | 75 | 67
COc1ccc(/C(N)=N/OC(=O)CCCN2C(=O)c3ccccc3C2=O)cc1OC | -3 | . | i | 0.99 | 18 | 69 | 101
CC(=O)c1ccc(OCC(O)CN2CCCC(C)C2)cc1 (centres undefined) | -12 | -2.4 | i | 1 | . | . | 101
Cc1nc2sc3c(NCc4ccco4)ncnc3c2c2c1COC(C)(C)C2 | -5 | -1.6 | i | 0.72 | 52 | 138 | 110
Cc1cc(C)c2c(CN3CCN(CCO)CC3)cc(=O)oc2c1 | -13 | -2.6 | i | 0.87 | 17 | 59 | 91
O=C(NCc1cccs1)C1CCC(CNS(=O)(=O)c2cccc3nsnc23)CC1 (centres undefined) | -3 | 0.6 | i | 0.87 | . | . | 76
Cc1cccc(C(=O)Nc2cccc(-c3ccc4nncn4n3)c2)c1 | -6 | . | i | 0.91 | 33 | 87 | 104
CCOC(=O)Cc1c(C)nc2c(-c3ccccc3)c(C)[nH]n2c1=O | -12 | -1.9 | i | 0.75 | -38 | 64 | 104
C=CCC(Nc1ccccc1)C12C=CC(O1)C(C(=O)OC)=C2C(=O)OC (centres undefined) | -1 | 0.3 | i | 0.68 | -193 | 107 | 97
CSCC(=O)N1CCCC(C(=O)c2cc(F)ccc2F)C1 (centres undefined) | 6 | . | i | 0.93 | . | . | 103
Cc1ccc2c(c1)OC(=O)CC2c1ccccc1 (centres undefined) | 4 | -1.2 | i | 0.96 | -28 | 204 | 104
CCOc1ccccc1N(CC(=O)Nc1ccc(S(=O)(=O)N2CCOCC2)cc1)S(=O)(=O)c1ccccc1 | 4 | 2.2 | i | 0.92 | 13 | 72 | 102
N/C(=N\OC(=O)c1ccc2c(c1)OCO2)c1ccc(Br)cc1 | 2 | . | i | 0.79 | . | . | 101
Cc1ccc2cc(CN(CC3CCCO3)C(=S)Nc3ccccc3)c(=O)[nH]c2c1C (centres undefined) | -9 | 0.5 | i | 0.92 | 0 | 91 | 177
Cc1ccc(C)c(Nc2ccc(C(=O)NCCc3ccccc3)cn2)c1 | 1 | -1.0 | i | 1 | . | . | 103
Cc1cc(C(=O)NCCCN2CCCC2=O)no1 | -10 | -1.6 | i | 0.95 | -10 | 115 | 106
Cc1ccc(C)c(N2CCN(C(=O)C(Cc3ccccc3)n3cccc3)CC2)c1 (centres undefined) | 0 | -0.8 | i | 0.69 | . | . | 105
CCOc1cc(C2CC(=O)c3c(ccc4ccccc34)N2)ccc1O (centres undefined) | 5 | -1.2 | i | 0.74 | . | . | 102
O=c1c(/C=N/OCc2ccc(Cl)cc2Cl)c[nH]n1-c1cccc(Cl)n1 | -2 | . | i | 0.88 | . | . | 97
Cc1cccc(C(P(=O)(c2ccccc2)c2ccccc2)P(=O)(c2ccccc2)c2ccccc2)n1 | 0 | -0.6 | i | 1.3 | . | . | 105
COC1CCCCC1Nc1ccc(C)c(C)c1 (centres undefined) | -9 | -3.8 | i | 1.1 | 40 | 148 | 116
O=C(CN1CCOCC1)N/N=C/C(Br)=C\c1ccccc1 | 2 | . | i | 0.91 | -9 | 51 | 148
O=C(Nc1cccc(NC(=O)c2ccc(Br)o2)n1)c1ccc(Br)o1 | -4 | -1.3 | i | 0.98 | -43 | 140 | 90
O=C(Nc1ccc(Oc2ccccc2)cc1)c1ccco1 | 4 | -1.5 | i | 0.84 | 45 | 147 | 97
CCC1CCCCN1Cc1nc2c(c(=O)n(C)c(=O)n2C)n1CCC(C)C (centres undefined) | -4 | 1.6 | i | 0.99 | . | . | .
O=C(NCCc1ccc(Cl)cc1)/C(=C/c1cccnc1)NC(=O)c1ccccc1 | -10 | 2.2 | i | 1 | -5 | 65 | 110
Clc1nc(NCc2ccco2)nc(N2CCCCC2)n1 | -9 | . | i | 0.97 | . | . | 105
Cc1[nH]n(-c2cccc(Cl)c2)c(=O)c1C=NCC(C)C | -4 | . | i | 0.86 | . | . | 103
C/C(=N\NC(=O)CSCc1ccc([N+](=O)[O-])cc1)c1ccccc1 | 3 | . | i | 0.86 | . | . | 101
CCCCn1c(/N=C/c2ccc(N(C)C)cc2)nc2ccccc21 | -6 | -0.3 | i | 1 | -37 | 158 | 105
CC(=O)c1c(C)nn(CC(O)COc2ccc3ccccc3c2)c1C (centres undefined) | -8 | . | i | 0.94 | . | . | 103
COc1ccc(NC(=O)CC2CCCC2)cc1S(=O)(=O)N1CCCCC1 | 6 | -2.3 | i | 0.95 | -23 | 110 | 108
O=C(CSc1nnc(-c2cnccn2)n1Cc1ccco1)Nc1ccc(Br)cc1 | 0 | -0.6 | i | 0.98 | 35 | 153 | 104
Cc1cccc(N2CCN(C(=O)C3CCN(S(=O)(=O)c4cccc5cccnc45)CC3)CC2C)c1 (centres undefined) | -3 | . | . | . | . | . | 101
CCOC(=O)CC(/C(C)=N\O)c1ccccc1 (centres undefined) | 9 | -1.7 | i | 1.1 | . | . | 121
Cc1ccc(/C=N/n2c(C)nnc2C)cc1 | 32 | -3.1 | i | 1 | -47 | 100 | 105
Cc1ccccc1NCc1ccccc1O | 2 | -0.6 | i | 0.85 | . | . | 102
Cc1cc(C)nc(-n2nc(C)c(C3(O)C(=O)Nc4ccc(F)cc43)c2N)n1 (centres undefined) | -10 | -3.2 | i | 0.98 | 29 | 98 | 98
CC(NC(=O)C1CCN(c2nnc(-n3cccc3)s2)CC1)C12CC3CC(CC(C3)C1)C2 (centres undefined) | 3 | -0.6 | i | 1.2 | . | . | 102
Cc1nc(CC(=O)Nc2nc(C(C)(C)C)cs2)cs1 | -9 | -0.4 | i | 0.93 | 64 | 87 | 101
O=c1c2ccccc2[nH]c(=S)n1Cc1ccc2c(c1)OCO2 | -1 | . | i | 0.93 | . | . | 101
CC(=O)N1CCn2c3ccc(C)cc3c3cccc1c32 | 3 | -2.6 | i | 0.94 | -56 | 64 | 96
CCOC(=O)C(C)/C(C)=N\Nc1ccc([N+](=O)[O-])cc1[N+](=O)[O-] (centres undefined) | -5 | . | i | 0.87 | . | . | 104

Molecules above containing an NH in an aromatic ring (five):
SMILES | PKD1 kinase inh | GALR2 ag | HSV replic up | HSV replic up primary fold | Insulin prom inh | Insulin prom inh cell count | RGS16-Gao
CCOC(=O)Cc1c(C)nc2c(-c3ccccc3)c(C)[nH]n2c1=O | -12 | -1.9 | i | 0.75 | -38 | 64 | 104
Cc1ccc2cc(CN(CC3CCCO3)C(=S)Nc3ccccc3)c(=O)[nH]c2c1C (centres undefined) | -9 | 0.5 | i | 0.92 | 0 | 91 | 177
O=c1c(/C=N/OCc2ccc(Cl)cc2Cl)c[nH]n1-c1cccc(Cl)n1 | -2 | . | i | 0.88 | . | . | 97
Cc1[nH]n(-c2cccc(Cl)c2)c(=O)c1C=NCC(C)C | -4 | . | i | 0.86 | . | . | 103
O=c1c2ccccc2[nH]c(=S)n1Cc1ccc2c(c1)OCO2 | -1 | . | i | 0.93 | . | . | 101

Continued.
SMILES | PKD1 kinase inh | GALR2 ag | HSV replic up | HSV replic up primary fold | Insulin prom inh | Insulin prom inh cell count | RGS16-Gao
O=C(Nc1ccccc1Oc1ccccc1)C1CC1 | 1 | -1.5 | i | 0.87 | 8 | 74 | 121
Nc1ccccc1SCc1ccccc1Cl | . | . | i | 1.1 | . | . | 101
CC(=O)NCC1CCCN(Cc2cn(-c3ccccc3F)nc2-c2cc(C)sc2C)C1 (centres undefined) | 8 | . | i | 0.94 | . | . | 111
O=C(/C=C/c1ccc(Br)cc1)NC1CCCCCC1 | -1 | -0.9 | i | 0.9 | -7 | 119 | 89
CCCC(=O)Nc1ccc(-c2nc3cc(C)ccc3o2)cc1 | -10 | -5.4 | i | 0.81 | 40 | 112 | 100
CCO/C=C1/C(=O)N(c2ccccc2OC)C(=O)c2ccccc21 | 1 | . | i | 1.1 | 60 | 71 | 119
COCCNC(=O)c1onc(CSc2cccc(C)c2)c1C(=O)O | -9 | -2.9 | i | 0.99 | 5 | 120 | 98
COC(CN(C)C(C(=O)NC1CCCCC1)c1ccccc1)OC (centres undefined) | 2 | . | i | 1 | -20 | 64 | 100
O=C(Nc1ccncc1)c1cn(-c2ccccc2)nc1-c1cccs1 | 0 | -4.4 | . | . | -4 | 124 | 108
CC(=O)N1c2ccccc2C(=O)OC1c1cccnc1 (centres undefined) | 1 | -0.6 | i | 0.85 | . | . | 102
COc1ccc(-c2csc(N)n2)cc1F | -3 | . | i | 0.99 | 55 | 86 | 113
Cc1ccccc1-n1ncc2c([N+](=O)[O-])cc([N+](=O)[O-])cc21 | -2 | -2.5 | i | 0.87 | -26 | 237 | 98
CCc1ccccc1NC(=O)N[C@@H](C)C(=O)OC | -14 | -1.3 | i | 0.89 | . | . | 103
Cc1c(C(=O)NCCCN2CCOCC2)sc2ncnc(N3CCN(c4ccccc4)CC3)c12 | -4 | -0.5 | i | 1.1 | -16 | 106 | 105
CC1=C(C(=O)O)N2C(=O)C(NC(=O)c3nn(C)cc3Cl)C2SC1 (centres undefined) | 1 | -1.5 | i | 1 | -7 | 118 | 99
CCc1cc(=O)oc2c(CN3CCCC3)c(O)c(Cl)cc12 | -4 | 1.7 | i | 0.93 | . | . | 82
Cc1sc2nc(SCC(=O)NCc3ccco3)n(-c3ccccc3)c(=O)c2c1C | 5 | -0.8 | i | 0.76 | 33 | 113 | 101
O=C(N/N=C\c1cn[nH]c1-c1ccccc1)c1cccnc1 | 1 | -0.2 | i | 0.9 | 35 | 125 | 104
NC(=O)c1nn(-c2ccccc2)nc1NC(=O)CN1CCCC1 | . | . | i | 0.87 | . | . | 99
O=C(/C=C/c1ccco1)N(Cc1ccc(Cl)cc1)C1CCS(=O)(=O)C1 (centres undefined) | . | . | i | 1 | . | . | 100

Compound profiles, from the list above. Screens in order: PKD1 kinase inh, GALR2 ag, HSV replic up, HSV replic up primary fold, Insulin prom inh, Insulin prom inh cell count, RGS16-Gao
Listed for CCc1cc(=O)oc2c(CN3CCCC3)c(O)c(Cl)cc12 → -4, 1.7, i, 0.93, ., ., 82
Listed for NC(=O)c1nn(-c2ccccc2)nc1NC(=O)CN1CCCC1 → ., ., i, 0.87, ., ., 99
Listed for Cc1ccccc1-n1ncc2c([N+](=O)[O-])cc([N+](=O)[O-])cc21 → -2, -2.5, i, 0.87, -26, 237, 98
Listed for COc1ccc(-c2csc(N)n2)cc1F → -3, ., i, 0.99, 55, 86, 113

Remaining list, next part
SMILES | PKD1 kinase inh | GALR2 ag | HSV replic up | HSV replic up primary fold | Insulin prom inh | Insulin prom inh cell count | RGS16-Gao
CCN(CC)CCCN(Cc1cc2cc3c(cc2[nH]c1=O)OCCO3)C(=O)Nc1ccccc1 | -8 | -0.3 | i | 1 | . | . | 103
O=C(CCSc1ccccc1)N1CCCC1 | 2 | . | i | 0.89 | -57 | 130 | 99
O=C(c1ccc2c(c1)OCO2)C1CCCN(Cc2cc(F)ccc2-n2cccn2)C1 (centres undefined) | -1 | . | i | 1 | . | . | 111
COc1cccc(CNC(=O)CCC2CCCN(C(=O)c3cccc(Cl)c3)C2)c1 (centres undefined) | -7 | . | i | 1.1 | . | . | 110
CCOC(=O)CSc1nnc(CNc2ccc(Cl)cc2)n1Cc1ccccc1 | -5 | -2.6 | i | 1 | 0 | 124 | 99
O=C(N/C(=C\c1ccc(Br)cc1)C(=O)N1CCCC1)c1cccs1 | 16 | . | i | 1.1 | 26 | 92 | 103
O=C(CN1C(=O)C2CC=CCC2C1=O)Nc1nc2ccc(F)cc2s1 (centres undefined) | 5 | . | i | 0.89 | . | . | 97
COc1c(/C=N/NC(=O)[C@H]2C[C@@H]2c2ccccc2)c(CCN(C)C(C)=O)cc2c1OCO2 | . | . | i | 1 | . | . | 84
